VACV Venus inh: qHTS for Stage-Specific Inhibitors of Vaccinia Orthopoxvirus: Venus Reporter Primary qHTS; Vaccinia virus Venus reporter expression, fluorescence; Potency, µM (highest dose often 36.5 µM), inactives show at the highest dose activity change, negative = inhibition, actives largely listed as inhibitors; 330,000 compounds, 0.46% hits; active means well fitted inhibition curve with a large enough effect; inconclusive means small, poorly fitted or top-dose-only effect; inactive means no such curve, though single readings can be large or run the other way; tested in A549 cells; further: nearly all actives have a fitted effect of over 30% in size; inactives centre near -10
Vaccinia mCherry: qHTS for Stage-Specific Inhibitors of Vaccinia Orthopoxvirus: mCherry Reporter Primary qHTS. Vaccinia virus mCherry reporter infection, fluorescence; about a quarter of the inactives have no number. Potency, µM (highest dose often 36.5 µM), inactives show at the top dose activity change, negative = inhibition, hits mostly inhibitors. 310,000 compounds, 0.63% hits; active = well fitted inhibition curve with a large enough effect; inconclusive = small, poorly fitted or top-dose-only effect; inactive = no such curve, though single readings can be large or run the other way; tested in A549 cells; further: nearly all actives have a fitted effect of over 35% in size; inactives centre near -10
An asterisk follows results filed as active; i = inactive; u = inconclusive; x = not tested or not shown; [ ] = dose if it differs, or a comment. On the % scale 0 is the no-effect control and ±100 the full control effect; potency means the concentration at half of the fitted maximal effect. Compounds as they come; about 0.87% have a hit in one of these screens.

Start of the listing, in advance, seven compounds:
SMILES | VACV Venus inh | Vaccinia mCherry
COc1ccc(CNC(=O)CN2CCC(NC(=O)c3cccc(OC)c3)CC2)cc1 | -9.9% | i
CC(C)CC1C(=O)N(Cc2cn(Cc3ccco3)nn2)CCS(=O)(=O)N1Cc1ccc(-c2ccc(Cl)cc2)cc1 (stereo not drawn) | u | -10.4%
COc1ccccc1CN(C)C(=O)c1cc(-c2cccs2)nc2ccccc12 | -2.6% | -14.3%
O=C(CN1CCN(S(=O)(=O)c2ccc(Br)cc2)CC1)Nc1ccc2c(c1)OCCO2 | -11.5% | x
Cc1ccc(-n2nc3ccc(NC(=O)c4ccco4)cc3n2)cc1 | -22.3% | x
CC(C)c1ccc(/C=C/C(=O)NCCCN2CCOCC2)cc1 | -5.1% | -1.2%
COc1ccc(-n2c(=O)c3c(C)c(C)sc3n(Cc3cccc(F)c3)c2=O)c(OC)c1 | -3.3% | -9.9%

The list itself, from the first entry:
SMILES | VACV Venus inh | Vaccinia mCherry
COc1ccc(CNC(=O)CN2CCC(NC(=O)c3cccc(OC)c3)CC2)cc1 | -9.9% | i
CC(C)CC1C(=O)N(Cc2cn(Cc3ccco3)nn2)CCS(=O)(=O)N1Cc1ccc(-c2ccc(Cl)cc2)cc1 (stereo not drawn) | u | -10.4%
COc1ccccc1CN(C)C(=O)c1cc(-c2cccs2)nc2ccccc12 | -2.6% | -14.3%
O=C(CN1CCN(S(=O)(=O)c2ccc(Br)cc2)CC1)Nc1ccc2c(c1)OCCO2 | -11.5% | x
Cc1ccc(-n2nc3ccc(NC(=O)c4ccco4)cc3n2)cc1 | -22.3% | x
CC(C)c1ccc(/C=C/C(=O)NCCCN2CCOCC2)cc1 | -5.1% | -1.2%
COc1ccc(-n2c(=O)c3c(C)c(C)sc3n(Cc3cccc(F)c3)c2=O)c(OC)c1 | -3.3% | -9.9%
COCCN1C(=O)CCC1(C)C(=O)NC(C)(C)C (stereo not drawn) | 1.8% | 9.9%
CC1(C)Cc2c(sc(/N=C/N3CCOCC3)c2C#N)C(C)(C)N1 | -2.2% | -7.0%
O=C(c1ccco1)N1CCN(C(c2ccccc2Cl)c2nnnn2CC2CCCO2)CC1 (stereo not drawn) | -9.4% | -10.7%
O=C(c1ccccc1)C1NC1c1ccccc1 (stereo not drawn) | 3.9% | -5.9%
Cn1nc(-c2ccccc2)c2cc(C(=O)O)sc21 | -16.9% | -29.5%
COc1ccccc1CNC(=S)NC1CCCC1 | -2.3% | i
O=C(CSc1n[nH]c(-c2ccccc2F)n1)NCC(=O)Nc1ccc(F)c(F)c1F | -12.2% | i
COc1ccccc1NC(=O)Nc1cccc(C(=O)O)c1 | 0.7% | i
O=C(/C=C/c1ccccc1)Nc1cccc(C(=O)N2CCCCC2)c1 | -23.1% | -15.4%
Cc1ccc(-n2c(SCC(=O)N/N=C/c3c(C)nn(-c4ccccc4)c3C)nc3ccccc3c2=O)cc1 | -14.3% | u
CN(C)CCCNC(=O)CC1C[C@H](C(=O)N2CCCCC2)[C@@]2(CCc3ccccc3)c3[nH]c4ccccc4c3CCN2C1=O (stereo partly drawn) | -12.7% | -12.8%
CCOC(=O)c1cc(-c2ccc(C)cc2)n(CC(=O)Nc2ccc(OC)c(Cl)c2)c1C | u | -28.7%
CCCn1ncc([C@@H]2C[C@H]3CN(Cc4cccc(Cl)c4)C(=O)[C@]34CCCN24)c1C | 1.3% | 3.1%
O=C(CN(Cc1ccc(F)cc1)C(=O)CNS(=O)(=O)c1ccccc1)NCc1ccco1 | -14.1% | -20.2%
O=C1c2ccccc2C(=O)N1CCc1nc2ccccc2c(=O)n1-c1ccccn1 | -8.3% | -8.1%
COCCNC(=O)C1(C)CCCN(Cc2cc3ccccc3o2)C1 (stereo not drawn) | -1.2% | 16.5%
CCN1C(=O)c2cccc3c(S(=O)(=O)NCc4cccnc4)ccc1c23 | -18.0% | x
CCOCCCn1c(=N)c(C(=O)NCc2ccco2)cc2c(=O)n3ccccc3nc21 | 7.2% | 13.1%
CC(C)CCNC(=O)C(=O)Nc1ccc2c(c1)N(S(=O)(=O)c1cccs1)CCC2 | u | u
CC(C)c1ccc(NC2CCCN(C(=O)c3ccc(N4CCOCC4)cc3)C2)cc1 (stereo not drawn) | -18.0% | -27.5%
O=c1c2ccccc2nc2ccc(NCc3ccco3)nn12 | 6.1% | 5.6%
CC(Sc1nnnn1C1CCCCC1)C(=O)O (stereo not drawn) | -16.4% | i
CCCCCN1CC(O)=C(c2nc3ccccc3[nH]2)C1=N | -22.0% | -11.2%
O=C(NNC(=O)c1ccc(S(=O)(=O)N2CCOCC2)cc1)c1ccccc1 | -4.2% | 2.2%
Cc1ccc(CNC(=O)c2cc(=O)c3cc(C)c(C)cc3o2)cc1 | -5.0% | -7.5%
CC(=O)Nc1ccc(C(=O)OCC(=O)/C(C#N)=C(\C)N)cc1 | -3.7% | 8.5%
COc1ccc2c(c1)C(=O)N(Cc1ccccc1)C(=O)C2(C)C | 1.0% | -14.1%
COc1cc(C(=O)OC2CCOC2=O)c([N+](=O)[O-])cc1OC (stereo not drawn) | -12.0% | -17.4%
CSc1nc(-c2ccc(Cl)cc2Cl)[nH]c(=O)c1C#N | -8.7% | -11.3%
Cc1ccc(C2(c3ccccc3)NC(=O)N(CC(=O)NC3CCS(=O)(=O)C3)C2=O)cc1C (stereo not drawn) | -17.0% | -20.8%
CC(C)(C)Cc1cc(N)on1 | -4.9% | -3.3%
Cc1cc(NC(=O)CSc2nc3ccccc3n2CC(=O)N2CCC(C)CC2)no1 | -9.2% | x
Cc1ccc[n+](CC(=O)c2ccc(-c3ccccc3)cc2)c1 | -9.9% | i
COc1ccccc1NC(=O)Cn1c(=O)n(CCC(=O)NCC2CCCO2)c(=O)c2cc(OC)c(OC)cc21 (stereo not drawn) | -12.1% | -7.1%
CCN(CC)c1ccccc1 | -1.1% | i
Cc1cc(C)cc(C(=O)N2CCCCC2)c1 | -5.9% | i
Cn1c(-n2c(-c3ccco3)nc3ccccc3c2=O)nc2ccccc21 | -16.5% | -22.5%
Cc1oc(-c2ccc(C(=O)NCCc3ccc(Cl)cc3)cc2)nc1CSc1ccccc1 | -13.2% | -18.9%
NC(=O)C1CCN(C(=O)COCc2cc(-c3ccc4c(c3)OCO4)on2)CC1 | 11.2%[7.34 µM] | 0.4%[7.34 µM]
CCc1ccc(N2C(=O)NC(=O)/C(=C/c3cccn3CCOc3ccc(C)cc3)C2=O)cc1 | -11.5% | i
O=C(O)c1cscc1-c1cccc2ccccc12 | -17.0% | i
C=CCNC(=S)N/N=C/c1ccc(-c2ccc(Cl)cc2Cl)o1 | u | u
O=[N+]([O-])c1ccc(N2CCOCC2)nc1 | -2.9% | i
Other results.
SMILES | VACV Venus inh | Vaccinia mCherry
COCOc1ccc(C=O)c(OCOC)c1 | 6.6% | 4.0%
CCN(CC)S(=O)(=O)c1ccc(NC(=O)c2cc(C(=O)OC)cc([N+](=O)[O-])c2)cc1 | -24.6% | i
Cc1ccccc1CNC(=O)C(=O)NCC(c1ccco1)S(=O)(=O)c1ccccc1 (stereo not drawn) | -7.3% | -9.2%
CCCCn1nnnc1SCC(=O)NCc1ccco1 | -10.2% | -29.0%
CCCCCCCCN1C(=O)[C@H](CC(=O)NCCCC)C[C@@]2(C(=O)OC)CC(C)(C)CC=C12 | -7.5% | -26.2%
CCOC(=O)C1=C(C)N=C2SCCC(=O)N2C1c1sccc1C (stereo not drawn) | -13.2% | x
COc1ccc(S(=O)(=O)N2CCCCC2c2cc(C(=O)Nc3ccc(F)c(Cl)c3)no2)cc1 (stereo not drawn) | -16.9% | i
Cc1ccc(NC(=O)c2cc(C)nc3ccccc23)c(Br)c1 | -14.9% | -26.0%
COc1cccc(CNC(=O)COC(=O)c2ccc(C(=O)c3ccccc3)cc2)c1 | -18.6% | i
NC(=O)NC1CCCc2c1[nH]c1ccc(Cl)cc21 (stereo not drawn) | -3.4% | i
Cc1ccc(NC(=O)C(C)SCC(=O)Nc2ccc(F)cc2)cc1S(=O)(=O)N1CCOCC1 (stereo not drawn) | -12.6% | -14.7%
O=C(CC1SC(N2CCOCC2)=NC1=O)Nc1ccc(Cl)cc1 (stereo not drawn) | -2.0% | -21.8%
CCOC(=O)C1(Cc2cccc(OC)c2)CCCN(C(=O)c2cc(C)on2)C1 (stereo not drawn) | -6.7% | i
O=C(C[n+]1ccc(C(=O)NCc2ccccc2)cc1)c1ccc2c(c1)OCCO2 | -0.9% | -13.0%
OCC(CO)(CO)n1cnnn1 | -8.1% | -14.9%
Cc1cccc(-c2cc3nc4c(c(NCc5ccco5)n3n2)CCCC4)c1 | -20.4% | -16.0%
COc1ccccc1-c1noc(CCC(=O)Nc2ccc(C)cc2C)n1 | -0.2% | -11.0%
Cc1cccn2c(CN3CCNC(=O)CC3)c(C(=O)N(C)CCc3ccccc3)nc12 | -4.5% | i
CC(=O)c1cccc(NC(=O)CSC(=O)c2ccccc2)c1 | -13.0% | -20.5%
COc1cccc(CNC(=O)CCC(=O)n2ncc3cc(C)ccc32)c1OC | -7.0% | i
COc1ccccc1CN(C)CC(=O)Nc1cccc(S(=O)(=O)N2CCCCC2)c1 | -19.5% | u
CCN1CCN(CC(=O)Nc2ccc(Cl)c(Cl)c2)C(=O)C1=O | -2.0% | -10.2%
Cc1ccc(S(=O)(=O)N2C3CCCCC3O[C@H]2CC(=O)Oc2ccccc2)cc1 (stereo partly drawn) | -2.9% | -14.8%
Cc1cc(C)cc(NC(=O)c2ccc(NC3=NC4CS(=O)(=O)CC4S3)cc2)c1 (stereo not drawn) | -15.0% | i
O=C(CSc1ccc(Br)cc1)N1CCN(S(=O)(=O)c2ccccc2)CC1 | -12.8% | -9.2%
COc1cccc(N2CCN(S(=O)(=O)c3cc4c(cc3C)N(C)CCO4)CC2)c1 | -24.6% | -27.7%
O=C(c1cc2ccccc2oc1=O)N1CCN(S(=O)(=O)c2ccccc2)CC1 | -16.2% | -5.8%
CCCOc1ccc(C(=O)Nc2ccc3oc(-c4cccc(Cl)c4Cl)nc3c2)cc1 | u | u
N#C/C(=C/c1ccc(Br)o1)C(N)=O | u | x
CCCCNc1nc2ccccc2n1CC(=O)Nc1c(C)cccc1CC | u | -16.9%
COc1ccc(C(=O)N2CCOC2CNC(=O)C(=O)NCCc2ccccc2OC)cc1 (stereo not drawn) | -15.0% | -18.0%
Cc1ccc2c(=O)cc(C(=O)Nc3c(C)n(C)n(-c4ccccc4)c3=O)oc2c1 | 7.9% | 0.4%
CCCn1c(N)c(N(CCOC)C(=O)CSCC(=O)Nc2cccc(C)c2)c(=O)[nH]c1=O | -6.0% | -8.2%
CN(c1ccccc1)S(=O)(=O)c1cccc(NC(=O)c2ccc3ncsc3c2)c1 | -12.7% | -28.4%
Cc1ccc(NCCC#N)cc1C | -5.4% | -4.9%
Cc1cc(NC(=O)CSc2nc(N)c(NC(=O)c3ccc(F)c(F)c3)c(=O)[nH]2)no1 | 1.5% | -4.2%
COc1ccc(C(=O)OCC(=O)NC(=O)NC2CCCC2)c(O)c1 | -15.5% | -14.0%
Cc1ccc(S(=O)(=O)n2cccc2C)cc1 | 3.0% | 8.0%
Cc1ccc(C(=O)OCC(=O)NNC(=O)c2cccs2)c(O)c1 | 5.3% | i
COc1cccc(N2CCN(S(=O)(=O)c3ccc(-c4cc(C(F)(F)F)on4)s3)CC2)c1 | -3.6% | -6.1%
CCCn1nnnc1NCc1ccc(Cl)cc1Cl | -1.1% | -4.2%
O=C(NCC(=O)N(Cc1cccs1)C(C(=O)NC1CCCCC1)c1ccco1)c1cccs1 (stereo not drawn) | u | -19.0%
COc1ccc(/C=N/NC(=O)c2[nH]c3ccc(C)cc3c2-c2ccccc2)c(C(=O)O)c1OC | -24.9% | u
CCCCc1nnc(SCc2ccc(OCC)cc2)n1N | -8.7% | -0.8%
O=C(CSc1nnc2c(n1)[nH]c1ccc(F)cc12)OCc1ccccc1 | -7.4% | -6.2%
CCCc1nc(SC2CCCC2)c2c(=O)n(C)c(=O)n(C)c2n1 | -25.5% | -16.0%
O=C(Nc1ccccc1)c1ccc(OC(=O)c2ccccc2)cc1 | -13.3% | -18.4%
O=C(CN1C(=O)S/C(=C/c2cc(Br)cs2)C1=O)N1CCOCC1 | 7.6% | -8.7%
Nc1nncn1C(=O)c1ccccc1Cl | -10.0% | i
Cc1ccc(C(=O)NCC(c2ccc3c(c2)OCO3)N2CCN(c3ccc(F)cc3)CC2)cc1 (stereo not drawn) | -16.6% | -20.8%
Other entries follow.
SMILES | VACV Venus inh | Vaccinia mCherry
CCc1ccc(OCC(=O)NC(NC(=S)Nc2ccccc2OC)C(Cl)(Cl)Cl)cc1 (stereo not drawn) | -24.7% | u
CC(NC(=O)C1CCN(S(=O)(=O)c2cccc3nonc23)CC1)c1ccccc1 (stereo not drawn) | -15.5% | -13.5%
O=C(CNC1CCCCC1)Nc1ccc(S(=O)(=O)N2CCCCC2)cc1 | -10.0% | -7.8%
O=C(Cn1ccc2ccccc2c1=O)NCCC(=O)N1CCN(c2ccccc2)CC1 | -8.3% | -25.4%
CN(CCc1ccc(Cl)c(Cl)c1)CCN1CCCC1 | u | u
COC(=O)c1c(NC(NC(C)=O)C(Cl)(Cl)Cl)sc2c1CCCC2 (stereo not drawn) | -28.0% | -4.3%
COCCn1c(SCC(=O)Nc2ccc(C)cc2C)nc2c(oc3ccccc32)c1=O | -5.0% | -8.9%
COC(=O)c1cccc(C(=O)N2CCCC(C(=O)c3ccccc3OC)C2)c1 (stereo not drawn) | 4.3% | -7.8%
CCN(CC)CC(=O)c1c[nH]c2ccccc12 | -7.5% | x
O=C(CSc1ccc2nnc(CCNC(=O)c3ccccc3)n2n1)Nc1ccccc1 | -7.7% | -19.3%
